AID504770: growth inhibition of E. coli YBA685, primary screen, V. cholerae RctB inhibitors; E. coli YBA685 rctB-dependent plasmid, OD600 growth, 3 h; hits give low values; z-score (no concentration beside the values); hit rate 0.27% among 130,000;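 active means z-score under -2 on both plates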;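 further: wells of about 30 µL received 100 nL stock; score is relative to mean and SD of the test wells; the first replicate is given; strong numbers were not always called active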
Ba CapD inh: Bacillus anthracis CapD inhibitors, primary screen, biochemical, fluorescence intensity | CapD gamma-glutamyltranspeptidase (Bacillus anthracis Ames Ancestor) | purified CapD enzyme, fluorescence intensity read-out; hits give low values; some hits fall short of the stated cut | z-score (test concentration not listed) | hit rate 0.23% among 140,000 | AID 492967, 2010;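 active means z-score under -4 in either of two replicates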;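 further: stock transfer was 100 nL into about 40 µL; score is relative to mean and spread of the plate; one replicate is shown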
The depositor's hits bear a star; . = not tested or not shown. No enrichment for hits. Share with any hit: about 0.39%.

SMILES | AID504770 | Ba CapD inh
O=C1CC(c2ccccc2)CC(O)=C1C=NCC1CCCO1 (configuration not stated) | 1.1 | -0.16
Cc1oc(-c2cccc(Cl)c2)nc1CN1CCCC(C(=O)NC2CCCc3ccccc32)C1 (configuration not stated) | -0.35 | 0.46
Cc1ccc(C)c(N2CCN(c3cnn(-c4nc5ccccc5o4)c(=O)c3Cl)CC2)c1 | 0.2 | -0.075
O=C(O)c1cccc(S(=O)(=O)NCC2CCCO2)c1 (configuration not stated) | 0.4 | 0.58
CCC(=O)NC(O)C(=O)c1ccc(C)cc1 (configuration not stated) | 1.5 | .
N#Cc1ccc(Oc2ccc(C#N)cc2)cc1 | -0.25 | .
CCN(CC)CCOC(=O)c1ccc(NC(=O)CN2C(=O)/C(=C/c3ccccc3)SC2=S)cc1 | . | -0.59
O=C(Nc1ccc(F)cc1F)NC1CCN2CCCc3cccc1c32 (configuration not stated) | . | -0.065
CCCn1c(NCc2c[nH]c3ccccc23)nc2ccccc21 | -0.7 | -0.05
Cc1ccc(N2CCN(C(=O)c3cc4cc(Br)ccc4oc3=O)CC2)cc1Cl | 0 | 0.2
CCCCNc1nc(SC(CC)C(=O)NCCCOC)nc2ccccc12 (configuration not stated) | . | 4.2
CCN1CCN(C(=O)c2ccccc2F)CC1 | 2.1 | -0.11
CC(C)CC1CCCCC1OC(=O)C[N+]1(C)CCCCC1 (configuration not stated) | -0.05 | -0.27
Cc1nc2cc(-c3ccccc3)nn2c(C)c1CCC(=O)N1CCN(c2ccccn2)CC1 | -0.6 | 1.4
CCOC(=O)c1c(C)n(-c2ccccc2)c2c1cc(OC(=O)c1ccccc1C)c1ccccc12 | . | 0.24
O=[N+]([O-])c1cccnc1Sc1ccc(Cl)cc1 | . | -0.7
CCN(CC)c1cc(Nc2ccccc2OC)c([N+](=O)[O-])c2nonc12 | . | -0.2
c1ccc2sc(Cc3cn4ccccc4n3)nc2c1 | -0.45 | 3.5
O=C(CSc1nnc(-c2ccc3c(=O)n4c(nc3c2)CCCCC4)o1)c1c[nH]c2ccccc12 | 0.05 | .
N#Cc1cn(CCCOc2ccccc2)c2ccccc12 | -0.4 | 2.4

Whole records as entered above. Order of values: AID504770, Ba CapD inh
`O=[N+]([O-])c1cccnc1Sc1ccc(Cl)cc1` is listed as ., -0.7
`Cc1nc2cc(-c3ccccc3)nn2c(C)c1CCC(=O)N1CCN(c2ccccn2)CC1` is listed as -0.6, 1.4
`CCN1CCN(C(=O)c2ccccc2F)CC1` is listed as 2.1, -0.11
`N#Cc1cn(CCCOc2ccccc2)c2ccccc12` is listed as -0.4, 2.4
`c1ccc2sc(Cc3cn4ccccc4n3)nc2c1` is listed as -0.45, 3.5

Continued:
SMILES | AID504770 | Ba CapD inh
COc1ccc(OC)c(C(=O)c2coc3ccc(O)c(CN(C)C)c23)c1 | -0.2 | -0.18
Cc1ccc2nc3c(c(C(=O)OC4CCOC4=O)c2c1)CCCC3 (configuration not stated) | 0.45 | .
CC1CCC(N(C)Cc2nc3ccc(Cl)cc3n2CCO)CC1 (configuration not stated) | -0.9 | .
CCC(=O)c1cn(CC(=O)N2CCc3ccccc32)c2ccccc12 | -0.05 | 0.045
CC(=O)Oc1cc2sc(C)nc2c2sccc12 | -0.75 | -0.065
Cc1[nH]c2ccccc2c1-c1ccc(Cl)nn1 | -0.9 | -1.2
CC(C)c1cc(=O)[nH]c(SCc2nc(-c3ccccc3)no2)n1 | -0.8 | .
CCOC(=O)c1csc(CS(=O)(=O)Cc2cccc(C(F)(F)F)c2)n1 | 1.1 | 1.8
CCN1CCN(c2ncc(C(=O)Nc3ccccc3C(=O)OC)c3ccccc23)CC1 | -0.05 | 14
Cc1cc(C#N)c2c(c1)-c1ccccc1CC2 | 0.25 | 2.1
CCN1CCN(C(=O)Cn2nc(C)c3sc4ccccc4c3c2=O)CC1 | 0.05 | 0.09
COc1ccc(-c2nnc(SCc3nnc(-c4ccccc4)o3)o2)cc1OC | -0.25 | .
COc1ccc(C2C(C(=O)Nc3cnc4ccccc4c3)c3ccccc3C(=O)N2C)cc1 (configuration not stated) | -0.45 | 0.6
COc1ccc(-c2cc(C(F)(F)F)nc(SCC(N)=O)n2)cc1 | -0.55 | -0.32
O=C(Nc1ccc(Br)cc1)c1cc(C2CC2)on1 | 0.25 | -0.05
CCN(CC)S(=O)(=O)c1cc(C(=O)NC2CC2)ccc1Cl | -1.2 | 0.2
N#Cc1ccc(OCC(=O)N2CCCCC2)cc1 | -0.45 | -0.45
O=C(O)/C=C/C(=O)Nc1ccccc1Sc1nccc(C(F)(F)F)n1 | 1.6 | 0.59
O=C(Nc1nn[nH]n1)C1CCCCC1 | 1.7 | 0.17
O=C(OCc1ccccc1)c1cnc(Sc2ccc(Cl)cc2)nc1C(F)(F)F | -1.5 | -0.2

For convenience, some entries already given.
SMILES | AID504770 | Ba CapD inh
COc1ccc(-c2nnc(SCc3nnc(-c4ccccc4)o3)o2)cc1OC | -0.25 | .
COc1ccc(C2C(C(=O)Nc3cnc4ccccc4c3)c3ccccc3C(=O)N2C)cc1 (configuration not stated) | -0.45 | 0.6
COc1ccc(-c2cc(C(F)(F)F)nc(SCC(N)=O)n2)cc1 | -0.55 | -0.32
O=C(Nc1ccc(Br)cc1)c1cc(C2CC2)on1 | 0.25 | -0.05

(next part)
SMILES | AID504770 | Ba CapD inh
CCOC(=O)CSc1nc2ccccc2o1 | 1 | -0.54
Cc1nc2ccccc2nc1CSc1nnc(-c2ccccc2)o1 | -0.2 | -0.64
CCC(SC1=Nc2ccccc2C2=NC(c3ccccc3)C(=O)N12)C(=O)Nc1cccc(OC)c1 (configuration not stated) | 0.5 | 0.35
Cc1ccc(-c2csc(NC(=O)C3(c4ccccc4)CC3)n2)s1 | 0 | .
CC1=NN(c2ccc(C)cc2)C(=O)C1 | -1.1 | 0.065
O=C(CC(NCc1ccccc1)C(=O)O)NC1CCCCC1 (configuration not stated) | 1.6 | .
NC(=O)C1CCN(C(=O)/C=C/c2cccc(Cl)c2)CC1 | -1.5 | .
CC1(N2CCOCC2)CC2(O)C(=[N+]1[O-])CCC/C2=N\O (configuration not stated) | -0.2 | -0.17
CCSc1nc(SCC)c2c3c([nH]c2n1)CCCC3 | -0.05 | -0.62
O=[N+]([O-])/C=C/c1ccc(Cl)cc1 | . | 0.25

Overlap with the part before: 2 entries, then new ones.
SMILES | AID504770 | Ba CapD inh
CCSc1nc(SCC)c2c3c([nH]c2n1)CCCC3 | -0.05 | -0.62
O=[N+]([O-])/C=C/c1ccc(Cl)cc1 | . | 0.25
N#Cc1ccccc1N1CCN(C(=O)CC2(CC(=O)O)CCCC2)CC1 | . | 33
S=c1[nH]c2ccccc2n1C1CCCCC1 | 0.3 | .
Cc1c2n(c3ccccc13)CC/C2=N\O | -0.95 | 37
CCCC(=O)c1c(NC(C)C)cc(C)oc1=O | 0.45 | -0.025
FC(F)C(F)(F)C1=Nc2ccccc2N=C(c2cccs2)C1 | . | 0.04
c1cn(-c2ccc3nnnn3n2)cn1 | -0.7 | -0.6
CCOC(=O)N1CCN(c2nc(-c3ccccc3)cc(C(F)(F)F)n2)CC1 | 0.6 | 0.17
O=C1CC2(CCCC2)C(=O)N1c1ccc(S(=O)(=O)NCC2CC2)cc1Cl | -0.35 | -0.17
COCCOC(=O)c1ccc2nc(N)sc2c1 | -0.65 | 2.9
CCCN1CCC(N(C2CC2)S(=O)(=O)c2ccccc2S(C)(=O)=O)CC1 | . | -0.52
CNC(=O)CSc1nnc(-c2ccccc2OC)n1CCc1ccccc1 | 0.8 | .
CC(C)(C)NC(=O)[C@@H]1C[C@@H]2CCCC[C@@H]2CN1C[C@@H](O)[C@H](Cc1ccccc1)NC(=O)[C@H](CC(N)=O)NC(=O)c1ccc2ccccc2n1 | . | -0.03
O=C(N/N=C/c1cc(F)cc(F)c1)c1cc2ccccc2cc1O | . | 0.42
Cc1[nH]c(=S)[nH]c(=O)c1Cc1c(F)cccc1Cl | . | -0.47
Cc1nc(SC(C)C(=O)O)c(C#N)c(C)c1Cl (configuration not stated) | 2 | -0.005
NC(=O)c1cc(N)cc(C(N)=O)c1 | -0.9 | 108
Nc1cccc(CCC(=O)O)c1 | -0.05 | 0.18
Fc1c(F)c(F)c(NC2=NCCCCC2)c(F)c1F | 0.65 | -0.52
O=C(CSC(=O)c1ccco1)Nc1cc(C(F)(F)F)cc(C(F)(F)F)c1 | -0.25 | -0.39
Cc1ccc(-c2nc3ncccc3n2OCc2cccc(Cl)c2)cc1 | . | -0.17
Cc1ccc(N2C(=O)C(N3C(=O)c4c(Cl)c(Cl)c(Cl)c(Cl)c4C3=O)C2c2cccc(Br)c2)cc1F (configuration not stated) | . | -0.41
O=C(NCC1CCCO1)c1cc(-c2ccc(Cl)s2)nc2ccccc12 (configuration not stated) | -0.75 | -0.28
CNc1nnc(-c2ccco2)s1 | -0.4 | 4.2
CCOC(=O)/C=C1\NC(c2ccccc2)=C(c2ccccc2)C1=O | 0.4 | 0.54
CCOC(=O)C1=C(c2ccccc2)OC(N)=C(C#N)C1c1ccc(C(F)(F)F)cc1 (configuration not stated) | . | 0.26
COC(=O)c1sc(-c2ccccc2)cc1NC(=O)CC#N | 0.65 | 10
COc1cccc(C(=O)NCCSc2c[nH]c3ccccc23)c1 | 0.7 | 0.065
O=C(OC1CCN(c2ccc([N+](=O)[O-])cc2)CC1)c1ccc(Cl)cc1 | . | -0.57
O=C(CNc1ccc2ccccc2c1)N1CCN(c2ccccc2)CC1 | 0.1 | .
COC(=O)c1c(C(=O)OC)c(-c2ccccc2)n2c1CCC2 | -0.15 | -0.17
CCOC(=O)c1ccc(Oc2nc(NC(C)C)nc(NC(C)C)n2)cc1 | . | 0.71
CCCCC(C(=O)O)N1C(=O)/C(=C/c2cccnc2)SC1=S (configuration not stated) | -0.7 | .
O=C(NC1CCCc2ccccc21)c1cc(S(=O)(=O)N2CCCCC2)c[nH]1 (configuration not stated) | 2 | -1.7
O=C(CSc1ccc2nnc(-c3ccccc3)n2n1)N1CCCCC1 | -0.4 | 1.1
COc1ccc(CNC2CCCCC2)cc1 | -0.35 | 0.27
CC1CCCCC1NC(=O)COC(=O)c1cc(-c2ccco2)nc2ccccc12 (configuration not stated) | -0.85 | .
CCOC(=O)NN1CNc2ccccc2C1=O | -0.5 | -0.49
COc1ccc2c(c1)-c1cc(Cl)ccc1S(=O)(=O)N2S(=O)(=O)c1ccc(C)cc1 | . | -0.14
c1ccc(CN=C2SC(=Nc3ccccc3)C3=C2CCCC3)cc1 | 0.1 | -0.7
COC(=O)C1CCN(C(=O)CCC2CCCCC2)CC1 | -0.7 | -0.33
O=C(OCC(=O)c1ccccc1Cl)c1cnccn1 | 1.9 | -0.43
COc1ccc(OC(=O)c2cscc2Sc2ccc(Cl)cc2)cc1 | . | -0.32
COCCOC(=O)c1c(C)oc2ccc(OC(=O)COc3c(F)c(F)c(F)c(F)c3F)cc12 | . | 0.01
CN1CCN(c2ccc(-c3ccno3)cc2)CC1 | 0.2 | 1.9
Cc1c(CCC#N)c(Cl)n2c(nc3ccccc32)c1C#N | -0.15 | .
O=C(NC(=O)c1cnccc1C(F)(F)F)Nc1ccc(Cl)cc1Cl | -0.35 | 0.045
CCNC(=O)c1cnc(N2CCCC2)nc1 | 0.75 | 1.4
O=C(NCc1ccccc1)c1ccc2noc(-c3ccccc3)c2c1 | 0.65 | .
N=c1n(Cc2ccccc2)c2ccccc2n1CC(O)c1ccco1 (configuration not stated) | -0.25 | -0.38
Cc1[nH]n(-c2ccccc2)c(=O)c1C(c1ccccc1OCc1ccc(F)cc1)c1c(C)[nH]n(-c2ccccc2)c1=O | . | 0.055
The list continues.
SMILES | AID504770 | Ba CapD inh
CCOc1ccc2[nH]c(=O)c(CN(C(=O)Nc3ccccc3)C3CC3)cc2c1 | 1.4 | .
CCCCN(CCCC)CC(O)CN(c1cccc2ccccc12)S(=O)(=O)c1ccc(C)cc1 (configuration not stated) | . | 0.09
CCOP(=O)(c1ccccc1)C(O)c1ccc(Br)cc1 (configuration not stated) | -0.5 | -0.045
O=C(O)c1ccccc1NS(=O)(=O)c1ccccc1 | 0.95 | 0.69
O=C(Cn1ccc2ccccc2c1=O)NCC(=O)N1CCC2(CC1)OCCO2 | 0.55 | 10
COc1cccc(C(=O)Nc2c(C(=O)Nc3ccccc3F)oc3ccccc23)c1OC | 0.7 | .
Cc1ccc(S(=O)(=O)CCSc2nnc(-c3ccco3)n2C)cc1 | -0.65 | 18
Cc1nc2cc(-c3ccccc3)nn2c(C)c1CC(=O)N1CCCC1 | 2.2 | 1.1
CN1C(=S)N(c2ccc(Cl)cc2)C(=O)/C1=C/c1ccccc1O | 0.5 | -0.89
COc1cccc(OC)c1CNC(=O)OCCc1ccc(C)cc1 | . | 0.52
O=C(CCCn1sc2ccccc2c1=O)NCc1cccs1 | 0.65 | -0.38
CCOC(=O)c1sc(Nc2ccc(C)cc2C)nc1C | -0.05 | 0.62
c1cncc(-c2noc(-c3cccs3)n2)c1 | -0.5 | -0.48
COc1ccccc1NC(=O)COC(=O)Cc1cccc2ccccc12 | -4.5 | 0.01
COc1cc(NC(=O)C(C)OC(=O)C23CC4CC(CC(NC(C)=O)(C4)C2)C3)cc(OC)c1 (configuration not stated) | -0.2 | .
FC(F)(F)c1ccc(Sc2n[nH]c(C(F)(F)F)n2)nc1 | 0.6 | 1
Nc1ccc2c(c1)OC1(CCCCC1)O2 | -0.35 | .
CC1(C)CC(n2c(=S)[nH]c3c(c2=O)C2(CCCCC2)Cc2ccccc2-3)CCO1 (configuration not stated) | . | -0.45
Cc1cccc(NC(=O)CSc2nnc3c(n2)-c2cccc4cccc-3c24)c1C | . | 0.11

Screens from PubChem BioAssay.
